# Screening results as filed in PubChem.
# H5N1 antiviral: antiviral screen in MDCK cells, H5N1 avian flu; cytopathic effect, luminescence, 72 h; hits give high values; no value below 0 was filed and about half of the inactive calls have no number; reference of the scale not given here; 96,000 compounds, 0.07% hits; inhibition, % at 50 µM; AID 740; in the data active = inhibition above about 25%
# An asterisk follows results filed as active; i = inactive.
SMILES,H5N1 antiviral
Cc1ccc(S(=O)(=O)/C(C#N)=C/c2c(N3CC(C)OC(C)C3)nc3c(C)cccn3c2=O)cc1 (stereo unspecified),2.5
O=C(NCCCN1CCN(c2ccccc2)CC1)Nc1ccccc1C(F)(F)F,i
CCc1cc2c(=O)n(-c3ccc(Br)cc3)cnc2s1,0.4
COc1ccc(C(=O)C(Cc2ccccc2)N(C)C)cc1 (stereo unspecified),i
COc1cccc(N=Cc2c[nH][nH]c2=O)c1,0.2
CCCn1c(=O)c2ccccc2n2c(SCc3nc4ccccc4s3)nnc12,2.4
CCOC(=O)Cc1nn(C)c(=O)c2ccccc12,i
CSc1ccc(S(=O)(=O)Nc2ccc(NC(C)=O)cc2)cc1,0.1
CCOC(=O)c1ccccc1NC(=O)c1ccccc1NS(C)(=O)=O,i
CCCCNc1cc(=O)oc2ccccc12,i
O=C(NCc1ccco1)C12CN(Cc3ccccc3)CC1C(c1ccc([N+](=O)[O-])cc1)=NO2 (stereo unspecified),i
CCOc1ccc(N2CC(C(=O)Nc3ccc(F)cc3F)CC2=O)cc1 (stereo unspecified),i
Cc1cc(C(=O)CSc2nnc(-c3ccco3)o2)c(C)n1-c1ccc2c(c1)OCCO2,i
Cc1cc(C(=O)NCCCOC(C)C)c2ccccc2n1,0.1
COC(=O)c1ccc(NC(=O)Cc2ccccc2)cc1,0.2
COc1ccc(Cn2nnnc2C(c2ccccc2Cl)N2CCC(C(N)=O)CC2)cc1 (stereo unspecified),0.6
CCN1C(=O)c2ccccc2S(=O)c2ccc(C(=O)N3CCN(C(=O)c4ccco4)CC3)cc21 (stereo unspecified),2.4
Cc1ccc(N2CC(C)Cn3c2nc2c3c(=O)n(CC(=O)OCc3ccccc3)c(=O)n2C)cc1C (stereo unspecified),1.7
CCCCNC(=O)CN1C(=O)NC2NC(=O)NC21 (stereo unspecified),0.2
Cn1ncc(C#N)c1NC(=O)C1CC(c2ccc(Cl)c(Cl)c2)=NO1 (stereo unspecified),i
O=C1C(Nc2ccccc2)=C(N2CCCCC2)C(=O)c2ccccc21,i
OC(COc1ccc2ccccc2c1)CN1CCCC1 (stereo unspecified),i
COc1cc2c(=O)n(CC3CCCO3)c(=O)n(CC(=O)Nc3cccc(Cl)c3)c2cc1OC (stereo unspecified),i
Cc1nc(N)sc1Cc1ccc2c(c1)OCO2,i
O=[N+]([O-])c1c(Nc2ccccc2)ccc2nonc12,1.3
O=C(/C=C/c1ccccc1)N/C(=C/c1ccccc1)C(=O)N1CCCCC1,i
Cc1ccsc1/C=C1\SC(N)=NC1=O,0.4
C=CCCC(=O)Nc1nc(C)c(-c2csc(Nc3ccc(Cl)cc3Cl)n2)s1,i
Oc1ccc(/C=N/NC2=NCCCCC2)cc1,1.0
O=C(c1ccc(Br)o1)N1CCN(c2ccccc2F)CC1,i
Cc1cc(NC(=O)C(C)(C)C)no1,i
CCOC(=O)c1ccc(NC(=O)CN2CCc3ccccc3C2)cc1,i
CCOC(=O)c1cc(NC(=O)N(C(C)C)C(C)C)c(C)nc1C,i
O=C(O)CCCNCc1ccccc1F,i
COC(=O)c1[nH]c2cc(OC)ccc2c1NC(=O)CN1CCOCC1,i
Cc1noc(C)c1S(=O)(=O)N1CCC(C(=O)N(C)Cc2ccccc2)CC1,0.6
CSc1oc(-c2ccco2)nc1S(=O)(=O)c1ccc(Br)cc1,0.3
CC1(C)Cc2ccccc2-c2nnc(SCC(=O)N3CCN(c4ccccc4)CC3)n21,3.5
CC1CCN(c2nc3ccc(C(=O)N4CCN(Cc5ccccc5)CC4)cc3s2)CC1,1.0
C=CCc1ccccc1OCC(O)Cn1ccnc1C (stereo unspecified),i
CN=C(Nc1ccc(Cl)cc1)c1ccc(C(F)(F)F)cc1,0.1
COC(=O)CN(n1cnnc1)S(=O)(=O)c1ccccc1Cl,0.3
O=C(Nc1ccccc1)C1CC(=O)N(c2ccc3c4c(cccc24)CC3)C1 (stereo unspecified),i
Oc1c(Br)cc2oc3c(c2c1CNCc1ccccc1)CCCC3,1.8
CN(CC(=O)NCc1cccc(F)c1)C(=O)c1ccco1,i
COCCSc1nnc(NS(=O)(=O)Cc2ccccc2)s1,0.2
Cc1cccc(-c2nc(CSCC(=O)N3CCN(Cc4ccc5c(c4)OCO5)CC3)c(C)o2)c1,2.0
CCOC(=O)C1CCCN(S(=O)(=O)c2ccccc2)C1 (stereo unspecified),0.3
Cc1cccc2cc(CN(Cc3ccco3)C(=O)c3cccs3)c(=O)[nH]c12,0.8
COCCn1c(SCC(=O)Nc2cc(C)on2)nnc1-c1ccco1,i
NC(=O)c1ccc(C(F)(F)F)n(Cc2ccc(Cl)cc2)c1=O,i
Cc1ccc(S/C=C\C(=O)c2ccccc2)cc1,i
O=C(COc1nc2ccccc2nc1N1CCOCC1)N1CCc2ccccc21,i
Cc1ccc2c(c1)CC1(CN2C)C(=O)OC(C)(C)OC1=O,i
CCOC(=O)CNC(=O)c1cn(CC)c(=O)c2cc(OC)c(OC)cc12,1.5
COc1ccc(-c2nc(C(N)=O)c3[nH]c(=O)n(-c4ccccc4OC)c3n2)c(OC)c1,1.3
Cc1ccc2c(c1)N(CCC(=O)NC(C)C)C(=O)CO2,1.0
COC(=O)Cn1cnc2ccccc2c1=O,i
Cc1ccc(N2CC(C(=O)NCc3ccccn3)CC2=O)cc1 (stereo unspecified),0.4
CCOc1ccccc1NC(=O)c1ccc2nccnc2c1,i

# Brought forward from above: 6 compounds; new compounds follow.
SMILES,H5N1 antiviral
CCOC(=O)CNC(=O)c1cn(CC)c(=O)c2cc(OC)c(OC)cc12,1.5
COc1ccc(-c2nc(C(N)=O)c3[nH]c(=O)n(-c4ccccc4OC)c3n2)c(OC)c1,1.3
Cc1ccc2c(c1)N(CCC(=O)NC(C)C)C(=O)CO2,1.0
COC(=O)Cn1cnc2ccccc2c1=O,i
Cc1ccc(N2CC(C(=O)NCc3ccccn3)CC2=O)cc1 (stereo unspecified),0.4
CCOc1ccccc1NC(=O)c1ccc2nccnc2c1,i
O=c1[nH]c2cccc(Cl)c2n(CCNc2ncc(C(F)(F)F)cc2Cl)c1=O,2.2
O=C(CCC1COc2ccccc2O1)N1CCCC1 (stereo unspecified),i
Cc1nc2c(C(=O)N3CCN(C)CC3)cnn2c(C)c1Cc1ccc(Cl)cc1,0.8
Cc1ccc(COn2c(-c3ccc(Cl)cc3Cl)nc3ncccc32)cc1,i
C=CCOC(=O)c1sc(NC(=O)c2ccco2)nc1C,i
OC(c1ccc2c(c1)OCO2)c1nccc2ccccc12 (stereo unspecified),0.5
CCc1ccc(N2C(=O)C3ON(c4ccccc4)C(c4ccco4)C3C2=O)cc1 (stereo unspecified),i
N#CC1=C(N)Oc2c(oc(CO)cc2=O)C1c1cccs1 (stereo unspecified),0.3
O=C(CCC(=O)OCC(=O)c1ccccc1)NC1CCCCC1,i
Cc1ccc(-c2nc(-c3ccccc3)no2)c(Cl)c1,i
COc1ccc(Br)cc1/C=N/NC(=O)CNC(=O)/C=C/c1ccccc1,5.1
CC(=NCCCN1CCOCC1)c1c(O)n(Cc2ccccc2)c(=O)[nH]c1=O,1.2
CC1(C)CC(=O)c2c(nn(-c3ccccc3)c2N)C1,i
CCCCC(=O)Nc1ccc2c(c1)nc(CCN1CCOCC1)n2C,1.8
O=c1[nH]c(=O)n(Cc2ccc(F)cc2)c(O)c1C=NCCN1CCCCC1,1.1

# In the list so far, 8 have an aryl methoxy group:
SMILES,H5N1 antiviral
COc1ccc(C(=O)C(Cc2ccccc2)N(C)C)cc1 (stereo unspecified),i
COc1cccc(N=Cc2c[nH][nH]c2=O)c1,0.2
COc1ccc(Cn2nnnc2C(c2ccccc2Cl)N2CCC(C(N)=O)CC2)cc1 (stereo unspecified),0.6
COc1cc2c(=O)n(CC3CCCO3)c(=O)n(CC(=O)Nc3cccc(Cl)c3)c2cc1OC (stereo unspecified),i
COC(=O)c1[nH]c2cc(OC)ccc2c1NC(=O)CN1CCOCC1,i
CCOC(=O)CNC(=O)c1cn(CC)c(=O)c2cc(OC)c(OC)cc12,1.5
COc1ccc(-c2nc(C(N)=O)c3[nH]c(=O)n(-c4ccccc4OC)c3n2)c(OC)c1,1.3
COc1ccc(Br)cc1/C=N/NC(=O)CNC(=O)/C=C/c1ccccc1,5.1

# Remaining list, next part.
SMILES,H5N1 antiviral
Oc1ccc(CNc2ccccc2)c2cccnc12,i
O=C(c1ccco1)N1N=C(c2cccs2)CC1c1ccc(F)cc1 (stereo unspecified),6.2
CSCCOC(=O)C1=C(C)NC(=O)CC1c1ccccc1Cl (stereo unspecified),i
COC(=O)c1ccc(-n2cnc(Cl)n2)c(F)c1,0.3
COc1ccc(CNC(=O)C(c2ccncc2)N(C(=O)Cc2cccs2)c2ccccc2C)cc1 (stereo unspecified),0.1
CS(=O)(=O)N1CCN(C/C=C/c2ccccc2)CC1,i
C=CCc1ccc(OCCOc2ccc(/C=N/n3cnnc3)cc2OCC)c(OC)c1,0.3
COc1ccc(NC(=O)c2c(NC(=O)CNCc3ccco3)sc3c2CCC3)c(OC)c1,i
COc1ccc(-c2csc(Nc3cccnc3)n2)cc1,0.4
Clc1cccc(-c2ccnc3nc(-n4cccc4)nn23)c1,6.8
COc1ccc(Cn2cccc(NC(=O)Nc3cccc(C#N)c3)c2=O)cc1,i
CC1(C)CC(=O)C2=C(C1)c1c(ccc3ccccc13)NC2c1ccco1 (stereo unspecified),i
CN(c1ccc(C(=O)Nc2ccccc2C(F)(F)F)cc1)S(C)(=O)=O,i
O=C(NCc1ccccc1)c1cccc(COc2ccc(Cl)cc2)c1,i
N#Cc1cnc(SCC(=O)c2ccccc2)nc1N,i
Cc1ccc2c(Cl)cc(Cl)c(OCC(=O)NC(=O)NCc3ccco3)c2n1,i
Cc1ccccc1CSc1nnc(-c2cccs2)n1Cc1ccco1,0.6
Cc1ccc(-c2csc3ncnc(N4CCN(C(=O)c5ccccc5)CC4)c23)cc1,i
Cn1cc(CCC(=O)NCc2ccc3c(c2)OCO3)c2ccccc21,i
CCOC(=O)c1cn(CC)c2cc(N3CCSCC3)c(F)cc2c1=O,2.7
Fc1cc2ncn(Cc3ccccc3)c2cc1F,0.1
O=S(=O)(CCN(CCS(=O)(=O)C(F)(F)F)CC1CCCO1)C(F)(F)F (stereo unspecified),2.5
OCCN(CCO)c1ncnc2c1sc1nc(N3CCOCC3)c3c(c12)CCCC3,i
COc1ccc(C(=O)Nc2nnc(C(F)(F)F)s2)cc1,6.6
Cc1cc(C(=O)NCc2cccs2)cs1,0.3
CCCC(c1nnnn1C(C)(C)CC)N(Cc1ccco1)Cc1cc2ccc(OC)cc2[nH]c1=O (stereo unspecified),i
CN(C)/C=C(/C#N)C(=O)c1cccc(Oc2ccc(C(C)(C)C)cc2)c1,0.1
Cc1ccc(NC(=O)c2nnn(-c3cc(C)cc(C)c3)c2N)cc1,i
O=C(Nc1cccn2ncnc12)c1ccc(Cl)cc1,0.6
CCOC(=O)Cc1csc(Nc2c(C)n(C)n(-c3ccccc3)c2=O)n1,0.5
CCCC(=O)N1CCN(c2ccc(NC(=O)c3ccc(Br)o3)cc2)CC1,i
CCOC(=O)N1CCN(Cc2ccc(F)cc2F)CC1,0.3
CCOC(=O)N1CCN(c2nc3c(c(=O)[nH]c(=O)n3C)n2Cc2ccccc2Cl)CC1,i
O=C1c2ccccc2C(=O)N1CCCC(=O)N1CCc2ccccc21,0.9
Cc1[nH]c2ccccc2c1C(=O)CN1CCC(C)CC1,1.2
O=C(COc1ccc(Cl)cc1Cl)N1CCCN(C(=O)COc2ccc(Cl)cc2Cl)CC1,i
Cc1oc(-c2ccccc2Cl)nc1CSCC(=O)O,1.0
N#CCCN1CCN(S(=O)(=O)c2ccc3c(c2)OCCCO3)CC1,0.1
CCOC(=O)C1CCN(C(=O)Cn2cc3c(n2)CCC(C)C3)CC1 (stereo unspecified),1.0
Cc1cc(-c2ccc(N3C(=O)CCC3=O)c(C)c2)ccc1N1C(=O)CCC1=O,0.7
Cc1cc(S(=O)(=O)NCCN2CCOCC2)c(C)s1,0.2
CCN(CC)S(=O)(=O)c1ccc(NS(=O)(=O)c2ccc(C)c(C)c2)cc1,i
Cn1c(N)c(C(=O)CSc2ccc3c(c2)OCCO3)c(=O)n(C)c1=O,i
COc1ccccc1NC(=O)CN1CCN(CC(=O)Nc2ccc(OCc3ccccc3)cc2)CC1,i
O/N=C(/CN(O)/C=C1/C=CC=N1)c1cccs1,i
COc1ccc(CCNC(=O)c2ccc(NS(=O)(=O)c3c(C)noc3C)cc2)cc1OC,i
COCc1cc(C)n(CC(=O)NC(C)c2ccccc2)c(=O)c1C#N (stereo unspecified),i
O=C(NCC(=O)N(Cc1ccccc1)C(C(=O)NC1CCCC1)c1ccco1)c1ccco1 (stereo unspecified),i
CCN(Cc1ccccc1)S(=O)(=O)c1ccc(C(=O)Nc2nnc(-c3ccccc3OC)o2)cc1,0.9
CCc1sc(-c2c(C#N)c(N)nc3c2CCCCCC3)cc1[N+](=O)[O-],i
C(=N\N1CCN(Cc2ccccc2)CC1)/c1cccs1,i
CC1=CC(C)C2C(=O)N(c3ccccc3)C(=O)C2C1 (stereo unspecified),i
CCOC(=O)c1nnn(-c2nonc2N)c1CN(C)C1CCCCC1,0.0
CCC(CC)C(=O)Nc1cc(C)cc(C)c1,0.8
CCCn1nc(C(=O)Nc2cccc(C(=O)OC)c2)c2ccccc2c1=O,i
CCOC(=O)C(C(=O)Nc1ccccn1)C1CCCCC1 (stereo unspecified),i
Cc1cc(=O)oc2cc(OCC(=O)Nc3nnc(CC(C)C)s3)ccc12,0.2
CC(=O)NC(Cc1ccccc1F)C(=O)NC1CCN(C(=O)c2cnccn2)CC1 (stereo unspecified),0.4
O=C(O)CCCn1nc(C(F)(F)F)c2c1CCCCC2,i
O=C(Nc1cnn(Cc2c(Cl)cccc2Cl)c1)C(c1ccccc1)c1ccccc1,0.5
# (cont.)
SMILES,H5N1 antiviral
COc1ccc(NCC(=O)Nc2ccc(Cl)cc2C)c(OC)c1,i
O=C(CSC1=Nc2ccccc2C2=NC(CC(=O)NCc3ccco3)C(=O)N12)NCC1CCCO1 (stereo unspecified),3.7
COCCNC(=O)CN(C(=O)CCC(=O)Nc1ccccn1)c1ccc(F)cc1,i
O=C1CC(N2CCN(c3nc4ccccc4s3)CC2)C(=O)N1c1ccc(F)cc1 (stereo unspecified),i

# These rows are one share of the data; count on the stated rates, not on these rows.
